FGF22 binding: FGF22 (human) thermal shift binding. Q9HCT0. recombinant FGF22 thermal shift, SYPRO orange fluorescence; percent of sucrose octasulfate shift, DMSO zero. calls only at 9.99 µM. hit rate 1.5% among 340,000. AID 651658;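 active = melting point raised past a set limit in the mean and every replicate; three in four hits are not shown here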
Target sequence (Q9HCT0 whole entry, looked up): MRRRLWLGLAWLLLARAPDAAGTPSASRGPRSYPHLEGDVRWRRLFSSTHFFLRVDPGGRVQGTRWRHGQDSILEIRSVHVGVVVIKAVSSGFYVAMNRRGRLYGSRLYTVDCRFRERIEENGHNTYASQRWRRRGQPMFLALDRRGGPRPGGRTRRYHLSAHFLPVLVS
Ecoli rRNA inh: inhibits bacterial ribosomal RNA function over humanized ribosomes. E. coli WT GFP vs humanized-ribosome RFP mutants, fluorescence, 24 h; stronger effect = lower value; DMSO median 0, no signal -100. GFP signal change (wild-type ribosome), % (no concentration beside the values). hit rate 1.6% among 350,000;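 active = significant combined selectivity score with lowered wild-type GFP, culture density cut under 30%, mutant RFP and density less affected; inactive = any of these conditions unmet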; note: one replicate is shown; some compounds called inactive have numbers as strong as hits
Ecoli rRNA inh OD600: also measured in Ecoli rRNA inh; calls as there; OD600 change, %; measured here: OD600 growth;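 optical density of the mix in the first replicate; 0 = DMSO median and -100 = no signal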
Ecoli rRNA inh RFP: also measured in Ecoli rRNA inh; calls as there; RFP signal change, %; measured here: RFP humanized mutant strains;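 first replicate; 0 = DMSO median and -100 = no signal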
* hit, by the source's call; i = inactive; . = not tested or not shown.

SMILES | FGF22 binding | Ecoli rRNA inh | Ecoli rRNA inh OD600 | Ecoli rRNA inh RFP
Cc1noc(C)c1NC(=O)N(C)C[C@@H]1Oc2ccc(NC(=O)Nc3ccc(C(F)(F)F)cc3)cc2CC(=O)N([C@@H](C)CO)C[C@H]1C | i | 0.1 | -2.8 | 1.4
O=C(C[C@@H]1C[C@@H]2c3cc(NC(=O)Nc4ccccc4F)ccc3O[C@@H]2[C@@H](CO)O1)NCCc1ccccc1 | i | -3.7 | -0.1 | -0.8
C[C@H]1CN([C@@H](C)CO)C(=O)c2cccc(NC(=O)C3CCOCC3)c2O[C@@H]1CN(C)Cc1ccc(-c2ccccc2)cc1 | i | -1.1 | -1.8 | 1.6
O=C(C[C@@H]1CC[C@H]2[C@@H](COC[C@@H](O)CN2S(=O)(=O)c2cccc(Cl)c2)O1)NCCCN1CCOCC1 | i | 1.6 | -8.1 | -2.0
C[C@@H]1CN([C@H](C)CO)C(=O)Cc2cc(NC(=O)Cc3cn(C)c4ccccc34)ccc2O[C@H]1CN(C)CC1CCCCC1 | i | -5.5 | -25.6 | 9.2
O=C(C[C@@H]1CC[C@@H]2[C@H](COC[C@H](O)CN2Cc2cccc(F)c2)O1)NCCc1ccncc1 | i | -2.2 | 13.1 | -7.4
O=C(N[C@@H]1CC[C@H](CCNS(=O)(=O)c2ccc(Cl)cc2)O[C@@H]1CO)c1cccc(F)c1 | i | -0.6 | -1.9 | -3.3
COc1ccc(S(=O)(=O)N[C@H]2CC[C@@H](CCn3cc(-c4ccccc4F)nn3)O[C@@H]2CO)cc1 | i | -4.6 | -8.7 | 2.0
CNC[C@H]1Oc2cc(C#CCC(C)C)ccc2S(=O)(=O)N([C@@H](C)CO)C[C@@H]1C | i | 1.8 | 6.0 | 4.5
C[C@@H]1CN([C@@H](C)CO)C(=O)c2cc(C#Cc3ccccc3F)cnc2O[C@H]1CN(C)S(C)(=O)=O | i | 1.4 | -2.2 | -1.1
COc1cccc(NC(=O)N(C)C[C@@H]2Oc3cc(C#Cc4ccncc4)ccc3S(=O)(=O)N([C@H](C)CO)C[C@@H]2C)c1 | i | -2.9 | -4.3 | 3.3
CO[C@@H]1CN(C)C(=O)c2ccc(NS(=O)(=O)c3cccc(Cl)c3)cc2OC[C@@H](C)NC[C@H]1C | i | 0.6 | 0.1 | 1.4
C[C@@H]1CN([C@H](C)CO)C(=O)c2c(c3ccccc3n2C)-c2ccccc2CO[C@@H]1CN(C)CC1CC1 | i | 0.8 | -6.9 | 0.0
O=C(N[C@@H]1CC[C@H](CCNS(=O)(=O)c2ccc(F)cc2)O[C@@H]1CO)C1CCOCC1 | i | 2.4 | 0.4 | -2.3
C[C@H]1CN([C@@H](C)CO)C(=O)c2cc(NS(=O)(=O)c3cccs3)ccc2O[C@H]1CN(C)Cc1ccc(Oc2ccccc2)cc1 | i | -5.8 | -46.9 | 7.7
CCC(=O)N1C[C@@H](C)[C@@H](OC)CN(C)C(=O)c2cc(NC(=O)c3ccccc3)ccc2OC[C@H]1C | i | -2.1 | -1.3 | 2.0
C[C@H](CO)N1C[C@H](C)[C@@H](CN(C)C(=O)NC2CCCCC2)OCCCC[C@H](C)Oc2ccc(NC(=O)CCC(F)(F)F)cc2C1=O | i | -0.5 | -3.3 | 0.0
C[C@H](CO)N1C[C@H](C)[C@@H](CN(C)C(=O)NC2CCCC2)Oc2ncc(C#CCN(C)C)cc2C1=O | i | -1.0 | 7.9 | 0.5
C[C@@H]1CCCCO[C@H](CN(C)C)[C@H](C)CN([C@@H](C)CO)C(=O)c2cc(NS(=O)(=O)c3ccccc3)ccc2O1 | i | 0.3 | -0.2 | -1.3
C[C@@H]1CN([C@H](C)CO)S(=O)(=O)c2ccc(C#CC3CC3)cc2O[C@@H]1CN(C)CC1CCOCC1 | i | 12.1 | 0.5 | -0.4

Reprinted from the part before: six compounds, followed by the next part.
SMILES | FGF22 binding | Ecoli rRNA inh | Ecoli rRNA inh OD600 | Ecoli rRNA inh RFP
C[C@H]1CN([C@@H](C)CO)C(=O)c2cc(NS(=O)(=O)c3cccs3)ccc2O[C@H]1CN(C)Cc1ccc(Oc2ccccc2)cc1 | i | -5.8 | -46.9 | 7.7
CCC(=O)N1C[C@@H](C)[C@@H](OC)CN(C)C(=O)c2cc(NC(=O)c3ccccc3)ccc2OC[C@H]1C | i | -2.1 | -1.3 | 2.0
C[C@H](CO)N1C[C@H](C)[C@@H](CN(C)C(=O)NC2CCCCC2)OCCCC[C@H](C)Oc2ccc(NC(=O)CCC(F)(F)F)cc2C1=O | i | -0.5 | -3.3 | 0.0
C[C@H](CO)N1C[C@H](C)[C@@H](CN(C)C(=O)NC2CCCC2)Oc2ncc(C#CCN(C)C)cc2C1=O | i | -1.0 | 7.9 | 0.5
C[C@@H]1CCCCO[C@H](CN(C)C)[C@H](C)CN([C@@H](C)CO)C(=O)c2cc(NS(=O)(=O)c3ccccc3)ccc2O1 | i | 0.3 | -0.2 | -1.3
C[C@@H]1CN([C@H](C)CO)S(=O)(=O)c2ccc(C#CC3CC3)cc2O[C@@H]1CN(C)CC1CCOCC1 | i | 12.1 | 0.5 | -0.4
CN(C)C(=O)c1ccc(-c2ccc3c(c2)[C@H]2[C@H](CCN2C(=O)Cc2ccccn2)[C@@H](CO)N3C)cc1 | i | 0.7 | 5.9 | -5.5
COc1ccc(S(=O)(=O)Nc2ccc3c(c2)C(=O)N([C@H](C)CO)C[C@H](C)[C@H](CN(C)CC2CC2)OCCCC[C@@H](C)O3)cc1 | i | 0.6 | 0.5 | -2.1
C[C@@H]1CN([C@H](C)CO)C(=O)c2cc(NC(=O)Nc3ccc4c(c3)OCO4)ccc2O[C@H]1CN(C)Cc1ccccc1 | i | -5.8 | -11.0 | -0.8
O=C(Nc1cccc(F)c1)N1CCCCN2[C@H](CO)[C@H](c3ccc(-c4ccccc4F)cc3)[C@@H]2C1 | i | -10.4 | -31.2 | 18.8
COCC#Cc1ccc2c(c1)O[C@H](CN(C)CC1CCCC1)[C@@H](C)CN([C@H](C)CO)S2(=O)=O | i | 6.5 | 8.6 | -4.2
CO[C@@H]1CN(C)C(=O)c2cc(NC(=O)c3cnccn3)ccc2OC[C@@H](C)N(CC2CC2)C[C@@H]1C | i | 0.4 | -2.5 | -1.2
Cc1ccc(S(=O)(=O)Nc2ccc3c(c2)CC(=O)N([C@@H](C)CO)C[C@H](C)[C@H](CN(C)S(C)(=O)=O)O3)cc1 | i | 5.2 | 10.1 | -0.2
O=C(C[C@@H]1CC[C@H]2[C@@H](COC[C@@H](O)CN2C(=O)Nc2ccc(F)cc2)O1)NC1Cc2ccccc2C1 | i | -4.2 | -4.8 | -2.2
Cc1noc(C)c1NC(=O)N(C)C[C@H]1Oc2ccc(NC(=O)NC(C)C)cc2C(=O)N([C@@H](C)CO)C[C@@H]1C | i | 2.9 | 11.1 | -3.4
COCCNC(=O)C[C@@H]1CC[C@H]2[C@@H](COC[C@H](O)CN2Cc2ccc(Cl)c(Cl)c2)O1 | i | i | . | .
C[C@H](NC(=O)[C@H]1[C@H](CO)[C@H]2Cn3c(ccc(-c4cccnc4)c3=O)[C@@H]1N2C)c1ccccc1 | i | 4.2 | 7.2 | -2.7
CCCNC(=O)N(C)C[C@@H]1Oc2cc(C#C[C@@H](C)O)ccc2S(=O)(=O)N([C@H](C)CO)C[C@H]1C | i | 6.7 | 20.5 | -2.3
NC(=O)c1ncn([C@@H]2O[C@H](C(=O)N[C@H](Cc3c[nH]c4ccccc34)C(=O)O)[C@@H](O)[C@H]2O)n1 | i | 32.6 | 12.9 | 0.9
C[C@@H]1CN([C@@H](C)CO)C(=O)Cc2cc(NC(=O)Nc3ccc4c(c3)OCO4)ccc2O[C@@H]1CN(C)Cc1ccc(C(F)(F)F)cc1 | i | 2.7 | -13.7 | 1.9
C[C@H](CO)N1C[C@H](C)[C@H](CN(C)Cc2ccc(-c3ccccc3)cc2)Oc2ccc(NC(=O)NC3CCCCC3)cc2CC1=O | i | 0.3 | -3.2 | -0.6
Cc1noc(C)c1NC(=O)Nc1ccc2c(c1)C(=O)N([C@@H](C)CO)C[C@H](C)[C@@H](CN(C)Cc1ccc3c(c1)OCO3)O2 | i | -1.9 | -1.5 | -0.6
COc1ccc(NC(=O)Nc2cccc3c2O[C@H](CN(C)Cc2ccc(Oc4ccccc4)cc2)[C@H](C)CN([C@@H](C)CO)C3=O)cc1 | i | -0.4 | -9.3 | 4.3
Cc1cccc(NC(=O)Nc2ccc3c(c2)C(=O)N(C)[C@@H]2CC[C@@H](CC(=O)O)O[C@@H]2CO3)c1 | i | 2.6 | 4.6 | -1.6
COc1ccccc1C#Cc1ccc2c(c1)[C@H]1[C@H](CCN1S(=O)(=O)c1cccc(C)c1)[C@H](CO)N2 | i | 1.5 | 20.0 | -2.7
CNC[C@H]1Oc2cc(C#CC(C)(C)O)ccc2S(=O)(=O)N([C@H](C)CO)C[C@@H]1C | i | -1.2 | 18.0 | -3.5
COc1ccc(S(=O)(=O)N(C)C[C@@H]2Oc3ccc(NS(=O)(=O)c4ccccc4)cc3C(=O)N([C@H](C)CO)C[C@H]2C)cc1 | i | -3.4 | -1.2 | 1.4
CNC[C@H]1Oc2c(NS(=O)(=O)c3ccc(Cl)cc3)cccc2C(=O)N([C@@H](C)CO)C[C@@H]1C | i | 2.9 | 7.8 | -2.7
COc1ccc(S(=O)(=O)N(C)C[C@H]2Oc3ccc(NS(=O)(=O)c4cccs4)cc3C(=O)N([C@H](C)CO)C[C@H]2C)cc1 | i | -1.5 | -4.8 | -3.6
O=C(NCC[C@H]1CC[C@H](NS(=O)(=O)c2ccc(Cl)cc2)[C@H](CO)O1)c1ccc2c(c1)OCO2 | i | -6.0 | -6.5 | -4.8
COc1ccc(NC(=O)N2CCC3(CC2)CN(C(=O)CN2CCOCC2)[C@@H](CO)c2[nH]c4cc(OC)ccc4c23)cc1 | i | 0.2 | 1.9 | -1.6
CCCN(C)C[C@H]1OCCCC[C@@H](C)Oc2ccc(NS(=O)(=O)c3ccc(OC)cc3)cc2C(=O)N([C@H](C)CO)C[C@@H]1C | i | 1.8 | -1.9 | 3.4
COCC(=O)N(C)C[C@H]1Oc2cc(-c3ccccc3F)ccc2S(=O)(=O)N([C@H](C)CO)C[C@@H]1C | i | -2.3 | 1.4 | -1.1
O=C(N[C@H]1CC[C@@H](CCn2cc(C3CCCCC3)nn2)O[C@H]1CO)c1cccnc1 | i | 0.2 | -8.8 | -2.4
C[C@@H]1CN([C@@H](C)CO)C(=O)c2cccc(NC(=O)c3cnccn3)c2O[C@H]1CN(C)S(C)(=O)=O | i | 3.8 | 11.2 | -0.1
C/C=C/c1cnc2c(c1)C(=O)N([C@H](C)CO)C[C@@H](C)[C@H](CN(C)Cc1ccccc1)O2 | i | 1.0 | 9.6 | -3.4
N#C[C@@H]1N[C@H](CO)[C@@H]1c1ccc(C#Cc2ccccc2F)cc1 | i | -0.3 | 3.6 | -1.5
COc1ccccc1-c1ccc2c(c1)O[C@@H](CN(C)C(=O)c1ccccc1)[C@@H](C)CN([C@@H](C)CO)S2(=O)=O | i | -6.8 | -9.8 | 4.9
O=C(C[C@@H]1C=C[C@H](NC(=O)Nc2ccc3c(c2)OCO3)[C@H](CO)O1)NCc1ccc(Cl)cc1 | i | -3.2 | -2.6 | -2.1
C[C@H](CO)N1C[C@H](C)[C@@H](CN(C)CC2CC2)Oc2ccc(NS(=O)(=O)c3ccccc3)cc2C1=O | i | 2.3 | -2.4 | -2.7
C[C@@H]1CN([C@@H](C)CO)C(=O)c2cc(NC(=O)Nc3ccc4c(c3)OCO4)ccc2O[C@@H](C)CCCCO[C@H]1CN(C)Cc1ccc(C(F)(F)F)cc1 | i | 1.4 | -4.3 | 0.2
CCC(=O)N1[C@@H]2Cn3c(ccc(-c4ccncc4)c3=O)[C@H]1[C@@H](C(=O)NC1Cc3ccccc3C1)[C@@H]2CO | i | -1.2 | 1.3 | -0.3
C[C@H](O)[C@@H]1CN2CCc3ccc(-c4ccc5c(c4)OCO5)cc3[C@@H]2C[C@@H]1N(C)C(=O)c1ccco1 | i | -37.2 | -67.8 | -2.5
CCCC#Cc1cnc2c(c1)C(=O)N([C@@H](C)CO)C[C@H](C)[C@@H](CN(C)C(=O)C1CC1)O2 | i | -1.4 | 6.6 | -0.5
CN1C(=O)c2cc(NC(=O)c3cscn3)ccc2OC[C@@H]2O[C@@H](CC(=O)N3CCCCC3)CC[C@H]21 | i | -1.9 | -5.1 | 1.1
COc1cccc(NC(=O)C[C@@H]2CC[C@H]3[C@H](COc4ccc(NC(=O)C5CCCCC5)cc4C(=O)N3C)O2)c1 | i | -2.6 | 1.7 | 3.3
CCC(=O)N(C)C[C@H]1[C@H](c2ccc(C3=CCCC3)cc2)[C@@H](CO)N1C(=O)CC | i | 1.6 | 7.4 | 0.0
COc1ccc2c3c([nH]c2c1)[C@H](CO)N(C(=O)Nc1cccc(F)c1)CC31CCN(S(=O)(=O)c2ccccc2)CC1 | i | 0.4 | 8.5 | -0.9
CO[C@H]1CN(C)C(=O)c2cc(NS(=O)(=O)c3ccc(Cl)cc3)ccc2OC[C@@H](C)NC[C@@H]1C | i | 2.2 | 3.6 | 0.9
Cc1noc(C)c1NC(=O)NCC[C@H]1CC[C@@H](NC(=O)Nc2cccc(F)c2)[C@@H](CO)O1 | i | -2.3 | -2.6 | -2.1
C[C@H](CO)N1C[C@H](C)[C@H](CN(C)S(=O)(=O)c2ccc(Cl)cc2)Oc2ccc(NC(=O)Nc3ccc(C(F)(F)F)cc3)cc2C1=O | i | 2.9 | -0.5 | 0.2
COc1cccc(C#Cc2cnc3c(c2)C(=O)N([C@@H](C)CO)C[C@@H](C)[C@@H](CN(C)C(=O)C2CC2)O3)c1 | i | -2.8 | -18.4 | 2.7

Only part of the results is shown; rates above refer to the full screens.
